# High-throughput results from PubChem.
# KCNQ2 inh: KCNQ2 channel blockers in CHO-K1 cells – cell-based, FluxOR thallium flux, B-score, primary screen (AID 2156). 310,000 compounds, 1.1% hits. 20 min; hits give low values; only compounds with negative scores are shown here; some inactives read as strong as hits. O88943. B-score at 10 µM;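 active means fluorescence ratio B-score at most minus 3 library SDs, with starting brightness B-score within 2 library SDs, cut at about -5.5 in these data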
# Target sequence (O88943 whole entry, looked up): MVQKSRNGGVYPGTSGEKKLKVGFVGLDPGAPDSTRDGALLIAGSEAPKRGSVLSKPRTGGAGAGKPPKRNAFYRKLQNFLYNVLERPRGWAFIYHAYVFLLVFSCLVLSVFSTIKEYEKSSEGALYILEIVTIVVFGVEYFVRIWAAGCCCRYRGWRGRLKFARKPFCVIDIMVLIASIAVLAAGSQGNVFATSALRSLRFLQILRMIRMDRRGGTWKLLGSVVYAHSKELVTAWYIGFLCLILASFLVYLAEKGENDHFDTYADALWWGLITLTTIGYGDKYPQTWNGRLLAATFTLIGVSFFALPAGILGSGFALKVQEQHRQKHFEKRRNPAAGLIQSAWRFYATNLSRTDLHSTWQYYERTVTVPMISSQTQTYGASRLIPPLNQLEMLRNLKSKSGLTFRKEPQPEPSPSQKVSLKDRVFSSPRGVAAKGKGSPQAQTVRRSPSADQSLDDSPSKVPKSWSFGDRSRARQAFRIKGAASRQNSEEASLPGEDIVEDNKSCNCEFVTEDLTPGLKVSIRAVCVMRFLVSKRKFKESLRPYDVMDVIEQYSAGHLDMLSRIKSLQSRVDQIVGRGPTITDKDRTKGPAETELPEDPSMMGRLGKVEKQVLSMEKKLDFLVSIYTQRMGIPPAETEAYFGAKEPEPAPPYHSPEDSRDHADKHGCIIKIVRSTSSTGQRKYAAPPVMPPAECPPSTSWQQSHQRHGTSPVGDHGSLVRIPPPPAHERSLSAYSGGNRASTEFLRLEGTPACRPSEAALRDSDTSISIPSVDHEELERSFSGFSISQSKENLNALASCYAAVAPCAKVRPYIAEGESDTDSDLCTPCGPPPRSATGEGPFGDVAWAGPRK
# KCNQ2 inh baseline: recorded beside KCNQ2 inh, whose call it bears; B-score; measured here: initial fluorescence intensity artifact check;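 brightness before thallium and not channel activity; 0 = typical well and far values either way flag optical interference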
# * hit, by the source's call; i = inactive.
KCNQ2 inh	KCNQ2 inh baseline	SMILES
i	1.8	Cc1ccc(/C=C2/Sc3ccc(C(=O)NCCN4CCOCC4)cc3NC2=O)cc1
i	0.01	Cc1cc(C(=O)NC2CCCN(Cc3ccc(Cl)cc3)C2)no1 (configuration not stated)
i	-0.67	O=C1CC(c2ccc3c(c2)OCO3)c2cc3c(cc2N1)OCCO3 (configuration not stated)
i	-0.06	COc1ccc(C(=O)NC(C)c2nnc(SCC(=O)NC3CCCCC3)n2C)cc1 (configuration not stated)
i	-0.38	CCOc1ccc(-c2n[nH]c(=S)n2Cc2ccccc2)cc1
i	0.23	CSc1ccc(CNCCCN(C)C)cc1
i	-0.02	Fc1ccc(-n2c(Cn3nnc4ccccc43)n[nH]c2=S)cc1
i	0.35	COc1ccccc1Nc1nc(C)cc(C)n1
i	0.59	CCOc1ccc2nc(N3CCC(C(=O)N4CCN(C(=O)c5ccco5)CC4)CC3)sc2c1
i	2.2	Cc1cc(C)cc(OCC(=O)OCC(=O)N2CC(=O)Nc3ccccc32)c1
i	1.5	Cn1c(=O)c(C(=O)COC(=O)c2cc(-c3ccccc3)nc3ccccc23)c(N)n(Cc2ccccc2)c1=O
i	0.43	COc1ccc(Cc2nnc(SCC(=O)NCCc3ccccc3)o2)cc1
i	0.09	O=C(CC1SCCNC1=O)Nc1ccc(Cl)cc1 (configuration not stated)
i	-0.26	O=[N+]([O-])c1ccc(Cl)cc1Sc1ccccn1
i	-0.77	Cc1nn(CC(=O)N2CCOCC2)c(=O)c2ccccc12
i	-1.5	O=C(c1ccc(-n2cccn2)cc1)N1CCc2c([nH]c3ccccc23)C1c1ccccn1 (configuration not stated)
i	2.4	CC1CN(S(=O)(=O)c2cccc(C(=O)Nc3ccc(S(=O)(=O)NC4=NCCCCC4)cc3)c2)CC(C)O1 (configuration not stated)
i	1.9	c1ccc(COc2cccc(CNCc3cccs3)c2)cc1
i	1.1	CCN(CC)c1nc(=S)nc(NC(C)(C)C)[nH]1
i	1.9	CCCCNS(=O)(=O)/C=C/c1ccccc1
i	0.17	O=C(Nc1ccccc1Cl)C1CCCN1C(=O)OCc1ccccc1 (configuration not stated)
i	-2.6	O=C(NCC1CCCO1)C1c2ccccc2C(=O)N1C1CCCCCC1 (configuration not stated)
i	-2.2	CCN1CCN(c2nc3sc4c(c3c(=O)n2-c2ccc(OC)cc2)CCCCC4)CC1
i	1.6	Cc1nnc(SCC(=O)N(C)c2ccccc2)n1-n1cccc1
i	2.1	CCOc1ccc(/C(O)=C2/C(=O)C(=O)N(c3ccccn3)C2c2ccc(C)cc2)c(C)c1 (configuration not stated)
i	-1.4	CCOc1ccc(-n2cc(C(=O)Nc3cccc(C)n3)c3cc(OC)c(OC)cc3c2=O)cc1
i	-0.2	CCN(CC)CCN1C(=O)c2ccccc2NC1c1ccc(Br)cc1 (configuration not stated)
-6.8*	-0.6*	Cc1ccc(CN(Cc2ccccn2)C(=O)Nc2ccc(C)c(C)c2)cc1
i	1.1	O=C(O)C1(S(=O)(=O)CCC(F)=C(F)F)CC1
i	-0.79	CN(C(=O)CC1C(=O)NCCN1CC(c1ccccc1)c1ccccc1)C(C1CC1)C1CC1 (configuration not stated)
i	1.8	CCN(CC)S(=O)(=O)c1cccc(NC(=O)c2cc3ccccc3o2)c1
i	-0.01	COc1ccc(-c2nc(CS(=O)CC(=O)NCc3ccc(Cl)cc3)c(C)o2)cc1OC (configuration not stated)

# One compound at a time, from the list above. Order of values: KCNQ2 inh, KCNQ2 inh baseline
# CCOc1ccc2nc(N3CCC(C(=O)N4CCN(C(=O)c5ccco5)CC4)CC3)sc2c1 is listed as i, 0.59
# Fc1ccc(-n2c(Cn3nnc4ccccc43)n[nH]c2=S)cc1 is listed as i, -0.02
# CCN(CC)CCN1C(=O)c2ccccc2NC1c1ccc(Br)cc1 (configuration not stated) is listed as i, -0.2
# CCCCNS(=O)(=O)/C=C/c1ccccc1 is listed as i, 1.9

# Remaining list, next part.
KCNQ2 inh	KCNQ2 inh baseline	SMILES
i	-2.3	Cn1c(=O)oc2cc(S(=O)(=O)Nc3ccc(F)cc3)ccc21
i	0.06	COc1ccc(C(CNC(=O)c2ccc(S(=O)(=O)Nc3ccccc3F)cc2)N(C)C)cc1 (configuration not stated)
i	0.19	CCN(CC(=O)Nc1ccc(NC(C)=O)cc1)C(=O)CSCC(=O)Nc1ccc(C)cc1
i	-0.77	COc1ccc(S(=O)(=O)Nc2cc(C(C)C)c(O)cc2C)cc1
i	0.1	COc1cc(OC)c(N(C)S(=O)(=O)c2cccc(C(=O)NC(C)C3CC4CCC3C4)c2)cc1Cl (configuration not stated)
i	-0.01	O=C(CN1C(=O)CCS(=O)(=O)c2ccccc21)Nc1ccc(F)cc1
i	1.4	CSc1nnc(C(C)(C)C)c(=O)n1/N=C/c1c(O)ccc2ccccc12
i	-0.59	COc1cc(Cl)ccc1OCc1cc(C(=O)NCC(C)(C)N2CCOCC2)no1
i	-0.84	COc1ccccc1OC(=O)CCc1nc2ccccc2s1
i	0.49	COc1ccc(C)cc1N(C(=O)Cn1nnc(-c2ccc(C)o2)n1)C(C(=O)NC1CCCC1)c1ccncc1 (configuration not stated)
i	0.78	CC(=O)CSc1ncnc2nc[nH]c12
i	0.17	Cc1cc(NC(=O)c2ccc(COc3ccc(Cl)c(C)c3)o2)no1
i	-0.39	Cc1ccccc1-c1n[nH]c(=S)n1/N=C/C=C/c1ccco1
i	-0.81	COc1cc2nc(Cl)nc(N3CCOCC3)c2cc1OC
i	1.2	CCN(CC)S(=O)(=O)c1cc(NC(=O)CCCOc2ccc(C(C)=O)cc2)ccc1C
i	0.68	CC1(C)CC(N(Cc2cccs2)C(=O)c2ccco2)CCO1 (configuration not stated)
i	0.55	COc1ccc(CCNC(=O)c2ccc(=O)[nH]c2)cc1OC
i	-0.91	Cc1nnc(-c2ccc(Cl)cc2)nc1NCCN(C)C
i	-1.2	O=C(c1cccc(S(=O)(=O)N2CCCCC2)c1)N1CCN(S(=O)(=O)c2ccc(F)cc2)CC1
i	-2.4	CCOc1ccc(NC(=S)N2CCN(S(=O)(=O)c3ccccc3)CC2)cc1
i	1.3	O=C(CCCn1c(=S)[nH]c2ccccc2c1=O)NCCSCc1ccccc1
i	1.2	CCOc1ccc(OCC)c(NC(=O)CN(C)S(=O)(=O)c2ccc3nc(C)sc3c2)c1
i	-0.49	CN(CC(=O)Nc1c(Cl)cccc1Cl)C(=O)CNC(=O)c1ccc2ccccc2c1
i	1.7	CCOC(=O)C1=C(CNC2CCCCC2)NC(=O)NC1c1cc(C)ccc1C (configuration not stated)
-6.3*	1.1*	CCOc1cc(-c2cn(S(=O)(=O)c3cccc4nsnc34)nc2N)cc(OCC)c1OCC
i	-1.9	CC(C)CNS(=O)(=O)c1ccc(CCC(=O)NCC2CCCO2)cc1 (configuration not stated)
i	-1.1	Cc1sc2nc(C)n(/N=C/c3ccc(O)cc3)c(=O)c2c1C
i	0.01	O=C(COC(=O)C1CC(O)CN1C(=O)Oc1ccccc1)c1ccc(Br)cc1 (configuration not stated)
i	-0.39	O=C(NCc1cccnc1)C1CCN(S(=O)(=O)c2cc(Cl)ccc2Cl)CC1
i	-0.79	O=S(=O)(c1ccc2ccccc2c1)n1cccn1
i	-0.38	COC(=O)c1ccc(Oc2cc(C)nc(-n3nc(C)cc3C)n2)cc1
i	0.4	COc1cc2c(cc1OC)C(c1ccc([N+](=O)[O-])cc1)N(C(C)=O)CC2 (configuration not stated)
i	0.1	CCn1nnc(NC(=O)c2ccco2)n1
i	-2.8	CC(CCc1ccccc1)NCc1ccc(Cl)cc1Cl (configuration not stated)
i	0.59	Cc1cccc(NCc2nc(-c3ccccc3)no2)c1
i	1.4	CCOC(=O)C1=NOC2COC3(CCN(c4ncccn4)CC3)OCC12 (configuration not stated)
i	-0.29	CCOC(=O)N1CCN(C(=O)CCCCCn2c(=S)[nH]c3cc4c(cc3c2=O)OCO4)CC1
i	1.8	Cc1cccc(-c2nc(C#N)c(NCc3ccco3)o2)c1
i	1.4	Fc1cccc(CCN2C(=S)NC[C@@H]2Cc2ccccc2)c1
i	-0.4	Cn1cccc1Cc1nnc(SCC(=O)Nc2ccc(Cl)cc2)n1-c1ccc(F)cc1
i	0.09	O=C(CN1CCc2ccccc2C1)Nc1cc(S(=O)(=O)N2CCOCC2)ccc1N1CCCC1
i	0.26	CN1CCN(CCc2nc3cc(NC(=O)c4ccco4)ccc3n2C)CC1
i	2.7	Cc1ccc(N2CN(Cc3ccco3)CNC2=S)cc1
i	-0.36	N#Cc1cccc(NC(=O)CC2CCCC2)c1
i	-0.01	COc1ccc(OC)c(-c2csc(N(CC3CCCO3)C(=O)C3CCCCC3)n2)c1 (configuration not stated)
i	-0.23	O=C(NC1CCN(C(=O)Nc2cccc(Cl)c2)CC1)c1ccccc1
i	0.79	CCOC(=O)C1=C(N)n2c(s/c(=C\c3ccncc3)c2=O)=C(C(=O)OCC)C1c1ccncc1 (configuration not stated)
i	0.2	CC(=O)N1c2ccc(S(=O)(=O)NCC3CCC(C(=O)Nc4ccc(C)cn4)CC3)cc2CC1C (configuration not stated)
i	0.48	Cc1ccccc1CSCC(Nc1ccc(C(=O)O)cc1[N+](=O)[O-])C(=O)O (configuration not stated)
i	1.1	CCOc1ccccc1C(=O)N[C@H](C(=O)Nc1ccc(OC)c(S(=O)(=O)N2CCOCC2)c1)C(C)C
i	0.73	CCn1c2ccccc2c2cc(NC(=O)CSc3nnc(-c4cccc(C)c4)o3)ccc21
i	1.5	O=C(CN1CCCCCC1)N/N=C/c1cccc(Cl)c1Cl
i	-0.63	O=C(Nc1ccc(C(=O)N2CCCCC2)cc1)c1ccccc1Br
i	1.1	COc1ccc(CN2CCC(=O)N([C@H](CO)CC(C)C)CC2)cc1
i	-0.01	CC(C)OC(=O)CSc1nnc(-c2cnccn2)n1Cc1ccco1
i	1	CCn1c(CN2CCN(Cc3ccc(C)cc3)C(CCO)C2)nc2ccccc21 (configuration not stated)

# Additional results follow.
KCNQ2 inh	KCNQ2 inh baseline	SMILES
i	1.4	CC(C)CN1CCC(Oc2cccc(C(=O)NCCc3ccccc3)c2)CC1
i	-0.77	CN(Cc1cn(C)nc1-c1ccc(Oc2ccccc2)cc1)C1CCOC1 (configuration not stated)
i	2.2	O=C(NCC(c1ccco1)N1CCCC1)c1cccc(NS(=O)(=O)c2ccc(Br)cc2)c1 (configuration not stated)
i	0.17	Cc1cccc(-c2nc(CS(=O)CC(=O)NCc3ccco3)c(C)o2)c1 (configuration not stated)
i	-1.1	COC(=O)c1ccc(NC(=O)COc2cccc(-n3cnnn3)c2)cc1
i	0.98	COc1ccc(CNC(=O)COC(=O)c2ccccc2C(=O)c2ccccc2)cc1
i	-0.16	CC(=O)n1cc([C@@H]2C=C(C(=O)Nc3ccccc3)O[C@H](OCCCCO)C2)c2ccccc21
i	2.4	O=C(Nc1cccs1)Nc1c(F)c(F)c(F)c(F)c1F
i	-0.38	COc1ccc2nc(SCC(=O)NCc3ccc(OC)c(OC)c3)[nH]c2c1
i	1.4	COc1cccc(C2CC(c3ccc(NS(C)(=O)=O)cc3)=NN2C(=O)c2ccccc2)c1OC (configuration not stated)
i	1.2	CC1CCC/C(=N\NC(=S)Nc2ccccc2)C1 (configuration not stated)
i	0.81	COc1ccc(CN(C(=O)c2cccs2)C(C(=O)NC2CCCCC2)c2ccc3ncccc3c2)cc1 (configuration not stated)
i	-0.61	COc1nc(-c2ccc(Cl)cc2)ccc1-c1noc(-c2cccs2)n1
i	0.51	COc1ccc(C(=O)OCC(=O)NCc2ccco2)cc1S(=O)(=O)N1CCN(c2cccc(Cl)c2)CC1
i	-1.7	CCN(Cc1nc(-c2ccc(OC)cc2)no1)C(=O)c1ccc2c(c1)OCO2
i	0.36	O=C(CSc1nc2cc(S(=O)(=O)N3CCOCC3)ccc2o1)NC1CCCc2ccccc21 (configuration not stated)

# Part of the list above in order of molar mass, descending.
KCNQ2 inh	KCNQ2 inh baseline	SMILES
i	0.51	COc1ccc(C(=O)OCC(=O)NCc2ccco2)cc1S(=O)(=O)N1CCN(c2cccc(Cl)c2)CC1
i	0.81	COc1ccc(CN(C(=O)c2cccs2)C(C(=O)NC2CCCCC2)c2ccc3ncccc3c2)cc1 (configuration not stated)
i	-0.61	COc1nc(-c2ccc(Cl)cc2)ccc1-c1noc(-c2cccs2)n1
i	1.2	CC1CCC/C(=N\NC(=S)Nc2ccccc2)C1 (configuration not stated)

# Continuation.
KCNQ2 inh	KCNQ2 inh baseline	SMILES
i	-0.22	CC1=C/C(=C\c2ccc(Br)o2)C(=O)O1
i	-0.19	Cc1ccc(OC(=O)c2ccc(S(=O)(=O)N(C)C)cc2)c(-n2nc3ccccc3n2)c1
i	0.95	Cc1ccc2c(c1)N(C(=O)CCC(=O)NCCCN1CCC(Cc3ccccc3)CC1)CCO2
i	2	Nc1ncnc2c1CCC2
i	-0.37	CCOc1ccccc1CN1CCN(Cc2nc3c(s2)CCCC3)CC1CCO (configuration not stated)
i	-0.37	CSc1ccc(S(=O)(=O)N2CCC(C(=O)NCCc3ccccc3)CC2)cc1

# Only part of the results is shown (hit frequency here may not be typical).
